ClpP mod = qHTS Assay for Activators of ClpP; ATP-dependent Clp protease proteolytic subunit (Bacillus subtilis (strain 168)), P80244; purified B. subtilis ClpP, FRET peptide cleavage, 20 min; Potency, µM (doses to about 57.5 µM), for inactives: top-dose activity change, negative = active; actives 1.9% (n = 340,000); AID 651965, 2013; active = well fitted falling curve with a large enough effect; inconclusive = small, poorly fitted or top-dose-only effect; inactive = no such curve, though single readings can be large or run the other way; also: potency is read from the fitted curve at half-maximal effect; the source files actives as falling curves though it sought activators and does not explain the sign; nearly all actives have a fitted effect of over 65% in size; many hits overshoot -100%
Target sequence (P80244 whole entry, looked up): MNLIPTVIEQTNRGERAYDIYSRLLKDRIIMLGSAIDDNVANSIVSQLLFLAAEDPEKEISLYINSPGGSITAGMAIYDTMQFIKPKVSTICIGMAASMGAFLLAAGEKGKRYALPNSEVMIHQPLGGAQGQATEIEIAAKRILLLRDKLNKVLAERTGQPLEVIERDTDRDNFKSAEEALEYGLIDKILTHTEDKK
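FRET quenching reversal measured ClpP activation: 10 microg/mL B. subtilis ClpP at pH 8 with the FRET-FV decapeptide, read at 430 nm after 320 nm excitation. The 20-min minus 0-min signal was scaled between DMSO/no-enzyme wells and ADEP (5.8 microM final).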
D2 PAM = Beta-Arrestin HTS for Positive Allosteric Modulators of the Human D2 Dopamine Receptor: Potentiators; AID 624464, 2012; actives 0.23% (n = 360,000); potentiation, % (test concentration not listed); DiscoveRx D2 beta-arrestin cells, luminescence, 90 min; 100% = 57 uM dopamine signal; active = potentiation of 50% or more; inconclusive = 30% to 50%; inactive = 30% or less;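 also: compound concentration not given in the record; tested on top of an EC20 dose of dopamine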
Target sequence (P14416 whole entry, looked up): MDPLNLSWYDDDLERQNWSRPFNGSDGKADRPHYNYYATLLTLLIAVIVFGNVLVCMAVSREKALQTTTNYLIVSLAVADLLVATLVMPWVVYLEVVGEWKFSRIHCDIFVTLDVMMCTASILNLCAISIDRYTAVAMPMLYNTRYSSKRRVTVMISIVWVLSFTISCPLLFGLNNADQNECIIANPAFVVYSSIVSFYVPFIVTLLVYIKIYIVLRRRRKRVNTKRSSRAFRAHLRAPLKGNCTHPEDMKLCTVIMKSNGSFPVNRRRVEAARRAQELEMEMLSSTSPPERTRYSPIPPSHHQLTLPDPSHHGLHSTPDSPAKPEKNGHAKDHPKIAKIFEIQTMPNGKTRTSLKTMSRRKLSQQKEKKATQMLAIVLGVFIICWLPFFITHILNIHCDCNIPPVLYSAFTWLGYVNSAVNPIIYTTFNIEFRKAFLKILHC
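PathHunter beta-arrestin assay in DiscoveRx D2 cells. Compounds were added with an EC20 of dopamine (50 nM final) for 90 min at 37 deg C. Luminescence was read 1 h after detection reagent, with 57 uM dopamine as the EC100 control.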
TRPV1 PAM = HTS Assay for Compounds that Act as Potentiators of the Vanilloid Receptor 1; TRPV1-expressing cells, Fluo-8 calcium influx, capsaicin EC20 potentiation; host cell line not named in the record; control for the full effect not named in the record; AID 540277, 2011; potentiation, % at 8.33 µM; actives 0.02% (n = 320,000); active means potentiation above 80%; inconclusive means 30% to 80%; inactive means below 30%; also: 0% is about no effect
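TRPV1-expressing cells were cultured overnight at 35.5C and loaded with Fluo-8 calcium dye for 40 to 90 min at room temperature. After a 10 s baseline, compound was added and calcium influx was read kinetically for 3 min (ex 480/em 520 nm).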
Menin-MLL FL inh = qHTS Assay for Inhibitors Targeting the Menin-MLL Interaction in MLL Related Leukemias: Competition With Fluorescein Labeled MLL-derived Peptide; 290,000 tested, under 10 active; FP activity change, % at 61.4 µM; Fluorescence polarization, fluorescein-MLL peptide displacement from menin; inconclusive = falling polarisation curve, or a change in total fluorescence; inactive = total fluorescence flat and polarisation flat or rising; no compound was filed as active; the % refers to the polarisation; negative = inhibition;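 also: % of control where 0% means no effect; inhibitors lower the polarisation; unlabelled MLL peptide was the positive control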
gsp agonist = qHTS for Agonist of gsp, the Etiologic Mutation Responsible for Fibrous Dysplasia/McCune-Albright Syndrome: qHTS. gsp mutant cells, cAMP HTRF, 30 min; control for the full effect not named in the record. Potency, µM (titrated, usually from 76.9 µM), inactives show at the highest dose activation (cAMP increase), actives largely listed as activators. actives 0.13% (n = 340,000); active = well fitted activation curve with a large enough effect; inconclusive = small, poorly fitted or top-dose-only effect, or another doubt; inactive = no such curve, though single readings can be large or run the other way; cell line not stated here;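 also: phosphodiesterase inhibitor Ro 20-1724 added with compounds to block cAMP breakdown; potency is read from the fitted curve at half-maximal effect; nearly all actives have a fitted effect of over 60% in size; about a fifth of the inactives were tested at one dose only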
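Cells in DMEM/10% FBS with G418 were pretreated with compounds in DMSO plus […] (300 uM stock) for 30 min at 37C. cAMP was measured by HTRF (cAMP-d2 plus anti-cAMP antibody-K) after 30 min at room temperature.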
gsp antag = qHTS for Antagonists of gsp, the Etiologic Mutation Responsible for Fibrous Dysplasia/McCune-Albright Syndrome: qHTS | Potency, µM (top dose mostly 76.9 µM), without a hit: at the highest dose activity change, negative = inhibition, actives largely listed as inhibitors | gsp-mutant cells, cAMP HTRF, 30 min; control for the full effect not named in the record | actives 0.4% (n = 340,000); active = falling curve of any shape with a large fitted effect; inconclusive = falling curve, mostly with a smaller effect; inactive = flat or rising curve; cell line not stated here;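 also: intracellular cAMP measured with PDE inhibitor Ro 20-1724 present during compound exposure; potency is read from the fitted curve at half-maximal effect; % is scaled to controls: 0 for no effect and ±100 for the full control effect; nearly all actives have a fitted effect of over 65% in size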
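G418-selected cells were plated in DMEM/10% FBS for 16-24 h at 37C, then treated with compounds plus the PDE inhibitor […] (300 uM solution added) for 30 min at 37C. Intracellular cAMP was measured by HTRF after 30 min lysis at room temperature.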
Sfp PPTase inh = qHTS Assay for Inhibitors of Bacillus subtilis Sfp phosphopantetheinyl transferase (PPTase); 4'-phosphopantetheinyl transferase ffp (Bacillus subtilis), Q9F4F7; Biochemical Sfp PPTase activity, qHTS; actives 3.5% (n = 310,000); Potency, µM, for inactives: max response, negative = inhibition, usual class: inhibitors; active = well fitted inhibition curve with a large enough effect; inconclusive = small, poorly fitted or top-dose-only effect, or another doubt; inactive = no such curve, though single readings can be large or run the other way;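 also: the enzyme is Sfp with the accession as filed and its product quenches rhodamine fluorescence; potency is read from the fitted curve at half-maximal effect; 0% = enzyme reaction without inhibitor and -100% = no enzyme wells; top concentration of the series not given in the record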
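With Hepes-Na pH 7.6 buffer containing 10 mM MgCl2, Sfp (15 nM) modified BHQ-2-YbbR (12.5 uM) using rhodamine-CoA (5 uM). Two reads 30 minutes apart at 525/598 nm yielded each well's rate.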
The depositor's hits bear a star; u = inconclusive; x = no result given; & = joins results of further samples; [ ] = dose if it differs, or a comment. Not a hit list; overall some 5.1% were active at least once.

smiles | ClpP mod | D2 PAM | TRPV1 PAM | Menin-MLL FL inh | gsp agonist | gsp antag | Sfp PPTase inh
CC(=O)N/C(=C\c1ccccc1)C(=O)N1CCOCC1 | x | -6.3 | -8.5 | -1.1 | -6.2%[15.4 µM] | -13.2% | -14.2%
CN(CC(=O)Nc1ccccc1Cl)C(=O)COC(=O)c1ccc([N+](=O)[O-])s1 | -2.2% | 3.0 | x | x | 22.0% | -3.9% | x
Cc1ccc(NC(=O)COC(=O)C(NS(=O)(=O)c2ccc(Cl)cc2)C(C)O)cc1 (stereo unspecified) | -0.8% | -22.3 | 0.2 | x | 21.5% | 1.4% | 8.9%
CCC(=O)Nc1cccc(C2=NOC3(C2)C[C@@H](C(N)=O)N(C(=O)c2ccc(OC)cc2)C3)c1 (stereo partly specified) | -3.1% | -5.5 | -28.6 | 1.1 | x | 6.9% | 6.9%
COCc1cc(C)nc(N2CCc3ccccc32)c1C#N | -16.8% | -16.7 | 2.3 | u | 28.3% | -7.0% | -13.6%
Cc1cccc(Oc2ccc(NC(=O)C3=CC=CN4CCS(=O)(=O)N=C34)cc2)c1 | -2.7% | -1.6 | u | x | -0.6% | -18.7% | x
COc1ccc(C(=O)Nc2ccc(Oc3nc(C)nc4sc(-c5ccccc5)cc34)cc2)cc1OC | -2.2% | -5.8 | 0.4 | 2.1 | u | 4.5% | u
COc1cc(C=NC2CCCCC2)ccc1O | -4.5% | -3.8 | x | x | u | x | x
N#Cc1ccc(-c2ccc(F)cc2)nc1SCC(=O)Nc1sc2c(c1C#N)CCC2 | 9.2% | -8.6 | 14.2 | 9.0 | u | 2.8% | 16.7%
CCOc1ccc(NC(=O)NC(C)c2ccc3c(c2)OCO3)cc1 (stereo unspecified) | -1.5% | 2.2 | -1.8 | 0.1 | 27.0% | 5.1% | -3.3%
COc1ccc(OC)c(/C=N/NC(=O)CSc2nnc(C)n2-c2ccccc2)c1 | u | -17.9 | -3.1 | -5.9 | -39.4%[inhibitor] | -4.4%[15.4 µM] | -5.3%
CC1CC(=O)Nc2ccccc2N1C(=O)CN1CCN(C=O)CC1 (stereo unspecified) | x | -6.4 | -1.6 | -6.5 | -3.1%[15.4 µM] | 16.0% | 7.6%
COc1cc2[nH]c(=O)n(CCC(=O)N3CCc4ccccc4C3)c(=O)c2cc1OC | 28.2µM* | -3.0 | 5.2 | 4.4 | 18.0% | -3.9% | 10.9%
O=C1c2oc3ccccc3c(=O)c2C(c2cccnc2)N1CCCN1CCOCC1 (stereo unspecified) | 0.0% | -12.0 | 4.6 | -1.5 | 28.8% | 7.3% | 12.1%
CCOc1ccc(NC(=S)NNC(=O)CC(C)O)cc1 (stereo unspecified) | x | -3.4 | 1.0 | -4.1 | -15.9%[15.4 µM] | 14.3% | 20.3%
CCN(CC)c1cc(Cl)c2nonc2c1N | x | -8.3 | -2.3 | -2.0 | -0.9%[15.4 µM] | 12.2% | -3.8%
CCCn1c(=O)c2ccccc2n2c(Sc3nnnn3-c3ccccc3)nnc12 | -13.4% | -26.0 | 23.2 | -1.8 | -30.8%[inhibitor] | u | -1.0%
C=CCOc1ccc(C(=O)c2ccccc2)c(OCC(=O)NC2(C#N)CCCC2)c1 | -17.7% | -5.0 | 26.0 | -0.1 | 11.1%[15.4 µM] | -30.1% | -16.2%
Cc1c(/C=C(\C#N)c2nn(-c3ccccc3)c(N)c2C#N)c2ccccc2n1Cc1ccc(F)cc1 | -1.3% | -20.2 | -0.4 | 3.7 | -20.6% | 12.0% | 13.7%
CCCN(CCC)C(=O)c1oc2ccccc2c1NC(=O)Cc1cccc(OC)c1 | -11.1% | -12.6 | 4.3 | -23.1 | 0.2% | -9.0% | 1.9%
CCOC(=O)c1c[nH]c(=S)n1C | -0.6% | -7.5 | -4.0 | 3.7 | -3.3% | 8.6% | u
O=C(O)CCCCCNC(=O)c1ccc(C(=O)NCCCCCC(=O)O)cc1 | 0.6% | -7.6 | -2.1 | -1.1 | 15.6% | 12.1% | 27.1%
CC(=O)NC1=NC(=O)CS1 | -1.4% | -8.0 | 5.4 | 2.7 | -11.0% | 1.6% | 16.2%
c1ccc(-n2ncc3c(NCCN4CCCCC4)ncnc32)cc1 | -0.6% | -17.9 | 2.1 | -1.8 | -25.6% | 3.2%[15.4 µM] | -9.7%
Cc1ccc(NC(=O)CN2C(=O)COc3ccc(S(=O)(=O)N4CCOCC4)cc32)cc1N(C)C | 2.2%&0.0% | -21.2 | -5.0 | 3.8 | -3.7% | -0.5% | 26.4%
CCOc1cc(/C=C2/SC(=S)N(Cc3ccccc3)C2=O)ccc1O | -1.3% | -31.2 | 11.3 | u | -5.5% | -4.5% | -2.4%
CC(=O)c1ccc(NC(=O)CSc2nnc3ccc(-c4ccccn4)nn23)cc1 | -5.7% | 3.6 | -6.1 | x | 12.8%[15.4 µM] | -4.0% | x
Cc1cc2ccccn2c1C(=O)c1nc(N2CCOCC2)ncc1Cl | -1.6% | -19.4 | 7.0 | 1.4 | -34.9%[inhibitor] | -9.1% | -0.7%
O=C(CSc1nnc(-c2ccccc2Cl)o1)Nc1ccccn1 | 0.6% | -3.0 | -4.2 | 7.2 | -67.4%[inhibitor] | -13.0% | -19.9%
CC(C(=O)NNS(=O)(=O)c1cccc(C(F)(F)F)c1)n1nnc(N2CCOCC2)n1 (stereo unspecified) | x | -0.7 | 2.5 | 1.0 | 12.6% | 6.8% | 8.4%

Single entries from the list.
CCOc1cc(/C=C2/SC(=S)N(Cc3ccccc3)C2=O)ccc1O | ClpP mod: -1.3%
CC(=O)c1ccc(NC(=O)CSc2nnc3ccc(-c4ccccn4)nn23)cc1 | gsp antag: -4.0%

Following part:
smiles | ClpP mod | D2 PAM | TRPV1 PAM | Menin-MLL FL inh | gsp agonist | gsp antag | Sfp PPTase inh
CC(=O)Nc1cc2c(cc1C(C)=O)OCCO2 | -8.2% | -2.0 | 13.6 | 1.2 | 7.5% | -1.0%[15.4 µM] | 21.5%
O=C(COc1nc2ccccc2nc1N1CCOCC1)Nc1ccc(S(=O)(=O)N2CCCC2)cc1 | u | -10.3 | 9.1 | u | 11.8% | 0.1% | -14.6%
O=C(NNc1ccc([N+](=O)[O-])cc1)C1C2CCCCC21 (stereo unspecified) | 1.2% | -15.9 | 1.9 | 3.7 | -5.6% | 19.4% | 1.4%
O=C(O)c1ccc(/C=N/Nc2ncc(Cl)cc2Cl)cc1 | -5.2% | -0.4 | u | 4.8 | u | -6.0% | u
CC(C)CC(=O)N=Nc1c(O)[nH]c2ccccc12 | 0.0% | -4.8 | -2.0 | -3.6 | 10.1% | -14.4% | 4.5%
COc1cc(NC(=O)c2cc(C(C)C)on2)c(OC)cc1Cl | -6.4% | -30.3 | -8.1 | 1.4 | -34.0%[inhibitor] | -5.9% | u
Cc1cc(C)c(S(=O)(=O)N2CCCCC2CCNC(=O)C(=O)NCc2cccnc2)c(C)c1 (stereo unspecified) | 1.5% | -9.1 | 10.3 | x | 19.3% | -1.4% | x
CCC1=[N+](C)CCn2c(C)ccc21 | -8.3% | 11.3 | 4.8 | 1.8 | -49.4%[inhibitor] | 0.0% | 8.5%
CCOC(=O)NC(=S)Nc1ccc(OC)cc1 | 1.7% | -1.2 | -2.3 | -1.1 | 0.5% | 5.3% | 18.4%
COCCCNC(=O)C1CCN(S(=O)(=O)c2c(C)noc2/C=C\c2ccc(OC)cc2)CC1 | 80.5% | -25.8 | -16.4 | -1.1 | -45.7%[inhibitor] | 0.8% | 21.1%
Cc1ccc2cc(C#N)c(NCCNC(=O)C3CC3)nc2c1C | 35.5µM* | 0.7 | -6.6 | -0.1 | -2.7% | 12.6% | 1.8%
Cc1cc(Cl)ccc1NC(=O)CN1C(=O)CSc2ccc(S(=O)(=O)N3CCOCC3)cc21 | -0.1% | -5.3 | 0.4 | 1.1 | -15.0% | 0.5% | 2.4%
CCN1CCN(c2nc(-c3ccccc3Cl)nc3ccccc23)CC1 | -0.6% | -9.6 | -11.4 | 0.1 | -4.2% | 2.1% | 13.2%
O=C(COC(=O)Cn1cc(C(F)(F)F)ccc1=O)Nc1ccccc1 | 2.3% | -0.4 | 9.6 | x | 25.0% | 0.2% | x
CCN(C(=O)COC(=O)CNC(=O)c1ccccc1C)C1=CCCCC1 | -2.7% | -14.0 | -0.4 | x | -13.9% | -4.7% | x
COc1ccc(CNC(=O)[C@@H](NC(=O)C2CCN(C(=O)[C@@H](N)CC(C)C)CC2)C(C)C)cc1 | 1.0% | -15.7 | 6.2 | -5.6 | x | 10.5% | 10.7%
O=C(Nc1cccc(-c2nnc(-c3ccccc3)o2)c1)c1ccco1 | -1.5% | 5.6 | -14.4 | 1.4 | -18.9% | -22.5% | 9.9%
C#CCCOC(=O)N1C2=NC(C(=O)OC)=C(C(=O)OC)[C@@H]3N(C)c4ccccc4[C@]23C[C@H]1CO | -0.5% | -7.4 | x | x | -40.5%[inhibitor] | 0.5% | x
COc1ccc(OCCC(=O)OCC(=O)Nc2ccc(Br)cc2)cc1 | 1.6% | -2.2 | -2.4 | 0.9 | -2.4% | 1.9% | 14.5%
CCCCN(C)C(=O)c1nc2ccccn2c1CNC1CCC1 | x | -14.7 | 0.0 | -1.5 | -6.9% | 6.6% | 11.8%
CC(NC(=O)c1ccco1)C(=O)Nc1nccs1 (stereo unspecified) | 0.5% | -5.4 | x | x | -36.5%[inhibitor] | 8.4% | x
CC1(C)Cc2ccccc2-c2nnc(-c3ccc4ccccc4n3)n21 | -12.5% | -5.4 | u | 0.1 | 10.0% | 1.1% | -11.0%

Screening results (PubChem BioAssay)
